GIV Gai3 FP = inhibitors of GIV peptide binding to Galpha-i3, primary screen, biochemical, fluorescence polarization, FITC-GIV GBA peptide, rat Galphai3 | 90 min; hits give low values; scaled: aluminum fluoride 0%, vehicle 100% | 210,000 compounds, 0.42% hits | percent of control (FP), % (test concentration not listed) | AID 1224905, 2016 | Guanine nucleotide-binding protein G(i) subunit alpha-3 (Rattus norvegicus), P08753;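 active means replicate mean at 85% of control or lower, very high polarization wells dropped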;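 further: wells of about 15 µL received 100 nL stock; the first replicate is given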
Target sequence (P08753 whole entry, looked up): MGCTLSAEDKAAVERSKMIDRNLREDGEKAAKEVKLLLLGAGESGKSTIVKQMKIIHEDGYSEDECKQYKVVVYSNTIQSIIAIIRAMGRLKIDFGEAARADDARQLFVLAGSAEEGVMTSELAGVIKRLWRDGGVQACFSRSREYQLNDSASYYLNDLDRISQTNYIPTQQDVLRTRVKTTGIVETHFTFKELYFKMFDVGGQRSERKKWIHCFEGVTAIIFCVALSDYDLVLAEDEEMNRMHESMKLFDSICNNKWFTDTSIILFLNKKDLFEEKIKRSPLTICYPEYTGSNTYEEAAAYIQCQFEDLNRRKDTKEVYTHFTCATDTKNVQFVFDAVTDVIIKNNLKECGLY
An asterisk follows results filed as active. Only part of the results is shown; count on the stated rates, not on these rows.

Preview (two entries):
entry	compound	GIV Gai3 FP
1	O=C(/C=C/c1ccco1)c1ccc2c(c1)C1C=CCC1C(c1ccc(Cl)cc1)N2 (stereo not given)	127
2	O=C1COc2cc(S(=O)(=O)N3CCOCC3)c(Cl)cc2N1Cc1noc(C2CC2)n1	104

The whole of this part, from the first entry:
entry	compound	GIV Gai3 FP
1	O=C(/C=C/c1ccco1)c1ccc2c(c1)C1C=CCC1C(c1ccc(Cl)cc1)N2 (stereo not given)	127
2	O=C1COc2cc(S(=O)(=O)N3CCOCC3)c(Cl)cc2N1Cc1noc(C2CC2)n1	104
3	Cc1cc(C)c2c(n1)sc1c(=O)n(CC(=O)NC3CCCCC3)cnc12	101
4	COc1ccc(OCC(=O)Nc2cc(Cl)ccc2OCc2cc(=O)n3oc(C)cc3n2)cc1	102
5	O=c1/c(=C\c2cc(Br)ccc2OCc2ccccc2)sc2nc3ccccc3n12	107
6	CC(=O)NC1C(OCc2ccccc2)OC(COC(C)=O)C(OC(C)=O)C1OC(C)=O (stereo not given)	106
7	COC(=O)c1ccc2c(=O)n(-c3cc(OC)cc(OC)c3)c(N3CCN(C)CC3)nc2c1	99
8	O=C(NCc1ccc(F)cc1)c1cccc(-c2cnc(NC3CCCCC3)nc2)c1	105
9	C=CCOC(=O)C1=C(C)NC(=O)NC1c1cn(-c2ccccc2)nc1-c1ccc(OC)c(Cl)c1 (stereo not given)	113
10	C=CCOc1ccc(C(c2c(C)[nH]n(-c3ccccc3)c2=O)c2c(C)[nH]n(-c3ccccc3)c2=O)cc1	97
11	Cc1cccc(C(=O)Nc2cnc3oc(-c4ccc(C(C)C)cc4)nn3c2=O)c1	107
12	CCOC(=O)C1CCCN(C(=O)c2sc3ncnc(N(CC)CC)c3c2C)C1 (stereo not given)	106
13	Cc1cccc(-n2c(-c3ccc(Cl)cc3)cn3c4c(=O)n(C)c(=O)n(C)c4nc23)c1	103
14	COCCNC(=O)c1cc2cc(S(=O)(=O)N(C)C)ccc2n1Cc1ccncc1	105
15	Cc1nc(N2CCCCC2)c2c(C)c(C(=O)Nc3ccc4c(c3)OCCO4)sc2n1	103
16	COC(=O)C1=C(C)OC(N)=C(C#N)C1c1ccc(SC)cc1 (stereo not given)	112
17	C(=C\c1nc(-c2ccc3c(c2)nnn3C2CCCC2)no1)/c1ccccc1	100
18	COc1ccccc1NC(=O)CCc1nc(CSc2nc3ccccc3o2)no1	111
19	Cc1ccc(NC(=O)Cn2nc3c4sccc4ncn3c2=O)cc1	96
20	Cc1cc2c(cc1S(=O)(=O)N(C)CC(=O)NCCC1=CCCCC1)OC(C)C(=O)N2 (stereo not given)	114
21	Cc1cccn2c(=O)c(/C=C3/SC(=S)N(C4CCCCC4)C3=O)c(N3CC(C)OC(C)C3)nc12 (stereo not given)	113
22	Nc1nonc1-c1noc(-c2cccc(COc3ccc(Cl)cc3Cl)c2)n1	106
23	Cc1cc(C2CCCN2Cc2cn[nH]c2-c2ccccc2)no1 (stereo not given)	106
24	Cc1onc(-c2ccccc2Cl)c1C(=O)N1CCCC1c1cc(C(C)C)on1 (stereo not given)	104
25	CCOc1ccc(CNC(=O)c2ccc(Nc3ncc(-c4cccc(F)c4)cn3)cc2)cc1OCC	100

In the list so far, these have an NH in an aromatic ring:
entry	compound	GIV Gai3 FP
10	C=CCOc1ccc(C(c2c(C)[nH]n(-c3ccccc3)c2=O)c2c(C)[nH]n(-c3ccccc3)c2=O)cc1	97
23	Cc1cc(C2CCCN2Cc2cn[nH]c2-c2ccccc2)no1 (stereo not given)	106

The listing continues:
entry	compound	GIV Gai3 FP
26	CC(=O)Nc1ccc(-c2cc(C(=O)NCc3ccc4c(c3)OCO4)c3cc(C)ccc3n2)cc1	104
27	O=C(c1ccc2c(c1)OCCO2)N(Cc1ccccn1)c1nc2c(Cl)cccc2s1	100
28	Cc1nn2c(SCC(=O)Nc3ccccc3Cl)nnc2[nH]c1=O	100
29	Cc1c(C)n(-c2ccccc2)c2nc(C(=O)NC3CCS(=O)(=O)C3)nc(N3CCCCC3)c12 (stereo not given)	101
30	COC(=O)C1=CN(Cc2ccc(OC)cc2)C=C(C(=O)OC)C1c1cccc(Oc2ccccc2)c1	106
31	O=C(Nc1cc2c3c(c1)C1CCCC1CN3CC1CCCC21)c1ccccc1F (stereo not given)	106
32	COc1ccc(C2Nc3ccc4ncccc4c3C3=C2C(=O)CCC3)cc1 (stereo not given)	99
33	COc1cc(/C=C2N=C(/C=C/c3ccc(Cl)cc3)OC/2=O)cc(Br)c1OC(C)=O	107
34	COc1ccc(NC(=O)Cn2c(=O)ccc3cc(S(=O)(=O)N4CCCC4)ccc32)cc1OC	100
35	Cc1ccc(-c2noc(-c3c(C)cc(C)[nH]c3=O)n2)cc1	96
36	CCOC(=O)c1ccc(NC(=O)C2CC(=O)N(CC)C(=Nc3ccc(F)cc3)S2)cc1 (stereo not given)	111
37	CCCCCCSc1nnc2c3ccccc3n(C)c2n1	99
38	CC(=O)N1N=C(c2cccc([N+](=O)[O-])c2)OC1c1ccc2c(c1)OCO2 (stereo not given)	117
39	O=C(Nc1ccc(-c2noc(-c3ccccc3[N+](=O)[O-])n2)cc1)c1cccc(Br)c1	108
40	O=C(c1cnccn1)N1CCC(Nc2ncnc3c2CCC3)C1 (stereo not given)	94
41	CCCCNC(=O)c1cccc(-c2nccc(Oc3ccc(OC)cc3)n2)c1	102
42	Cc1cc(=O)oc2c1ccc1occ(Nc3ccc(O)cc3)c12	102
43	Cc1ccc(NC(=O)c2sc3nc4c(c(-c5ccco5)c3c2N)CCC4)cc1Cl	101
44	COc1ccc(-c2nc3sc(CCNC(=O)c4cc(OC)cc(OC)c4)c(C)n3n2)cc1	100
45	CN1CCCn2nc(C3CCN(C(=O)NCc4ccco4)CC3)cc2C1=O	98
46	CCCOc1nc2cc(C)c(C)cc2[nH]c1=O	101
47	COc1ccc([N+](=O)[O-])cc1-c1ccc(C2C3=C(CC(C)(C)CC3=O)OC3=C2C(=O)CC(C)(C)C3)o1	114
48	Cc1csc(-c2cc(S(=O)(=O)Nc3ccc(Cl)cc3F)c(C)s2)n1	95
49	CCOC(=O)CS(=O)(=O)c1cc2c(cc1NC(C)=O)n(C)c(=O)c(=O)n2C	101
50	CCCCOc1ccccc1C1C(C(=O)OC)=CN(CCOC23CC4CC(CC(C4)C2)C3)C=C1C(=O)OC	104

Quoted from above: compounds 44–50
entry	compound	GIV Gai3 FP
44	COc1ccc(-c2nc3sc(CCNC(=O)c4cc(OC)cc(OC)c4)c(C)n3n2)cc1	100
45	CN1CCCn2nc(C3CCN(C(=O)NCc4ccco4)CC3)cc2C1=O	98
46	CCCOc1nc2cc(C)c(C)cc2[nH]c1=O	101
47	COc1ccc([N+](=O)[O-])cc1-c1ccc(C2C3=C(CC(C)(C)CC3=O)OC3=C2C(=O)CC(C)(C)C3)o1	114
48	Cc1csc(-c2cc(S(=O)(=O)Nc3ccc(Cl)cc3F)c(C)s2)n1	95
49	CCOC(=O)CS(=O)(=O)c1cc2c(cc1NC(C)=O)n(C)c(=O)c(=O)n2C	101
50	CCCCOc1ccccc1C1C(C(=O)OC)=CN(CCOC23CC4CC(CC(C4)C2)C3)C=C1C(=O)OC	104

Later entries
entry	compound	GIV Gai3 FP
51	COCCNc1nc(SCC(=O)c2ccc(O)c(O)c2)nc2ccccc12	100
52	C=CCNc1nc(Nc2ccc([N+](=O)[O-])cc2)nc(N2CCCC2)n1	101
53	O=C(Nc1cnn(-c2ncc(N3CCSCC3)cn2)c1)C1CCCO1 (stereo not given)	99
54	Cn1c(=O)n(CC(=O)N2CCCC2)c(=O)c2cc(S(=O)(=O)NC3CC3)ccc21	108
55	CCOC(=O)c1cnc2c(ccc3ccccc32)c1Nc1cccc(C(=O)OC)c1	110
56	COc1cc(C(=O)Nc2cc(-c3nc4ncccc4o3)ccc2C)ccc1OCc1ccc(Cl)cc1	103
57	CC(=O)Nc1ccc(NC(=O)CSC2=C(C#N)C(c3ccco3)C3=C(CCCC3=O)N2)cc1 (stereo not given)	101
58	CC(=O)N1CCC(C(=O)NCc2ccccc2)(N(C(=O)c2ccc(C)cc2)c2cc(F)ccc2F)CC1	107
59	CCOC(=O)C1=CC2(SC=C(C(=O)OCC)S2)C2=C(S1)C(C)(C)N(C(=O)Cc1ccccc1)c1ccc(C)cc12 (stereo not given)	112
60	Cc1ccnc(-n2c(C)cc(/C=C3\NC(=O)N(Cc4ccc(Cl)cc4)C3=O)c2C)c1	104
61	COc1ccc(C2NC(=O)c3c(sc4c3CCCC4)N2)cc1OC (stereo not given)	123
62	O=C(CN1N=C(c2ccc(Cl)cc2)CCC1=O)NCCCN1CCC(Cc2ccccc2)CC1	98
63	CCOc1ccc(NC(=O)CN2C(=O)/C(=C3\SC(=S)N(CCS(=O)(=O)O)C3=O)c3ccccc32)cc1	103
64	Fc1ccc(-c2nnc(C3CCCO3)o2)cc1 (stereo not given)	105
65	O=C(NCc1ccco1)c1ccc2c(=O)n(-c3ccc(F)cc3)c(SCC(=O)N3CCCC3)nc2c1	109
66	COc1cccc(N/C(SCc2ccccc2Cl)=C(/C#N)C(=O)NCc2cccs2)c1	101
67	Cc1ccc(NC(=O)c2c(NC(=O)c3ccc(C)cc3)sc3c2CCCCC3)cc1	119
68	COC(=O)c1ccc(N2CCC(C)CC2)c(NC(=O)Nc2ccc(Cl)cc2)c1	105
69	CCOC(=O)C1(O)CC(CC)=NN1C(=O)c1cccc(Br)c1 (stereo not given)	120
70	CC1CCCN(C(=O)C2CC(=O)N(c3ccc4c(c3)CCN4C(=O)C3CC3)C2)C1 (stereo not given)	98
71	CC1(C)CC(=O)C(C(C2=C(O)CC(C)(C)CC2=O)c2ccc(C(C3=C(O)CC(C)(C)CC3=O)C3C(=O)CC(C)(C)CC3=O)cc2)C(=O)C1 (stereo not given)	115
72	Cc1nn(-c2ccccc2)c(N2CCC(C(=O)N(C)Cc3ccccc3)CC2)c1-n1c(C)ccc1C	112
73	CN(C)S(=O)(=O)c1cc(-c2nnc(-c3ccccc3)o2)ccc1F	103
74	CCOC(=O)c1c(C)n(S(=O)(=O)c2ccc(Cl)cc2)c2ccc(NS(=O)(=O)c3ccc(Cl)cc3)cc12	125
75	COc1ccc(N2C(=O)C(N3C(=O)c4c(Cl)c(Cl)c(Cl)c(Cl)c4C3=O)C2c2cccc(Br)c2)cc1Cl (stereo not given)	102

The list continues.
entry	compound	GIV Gai3 FP
76	CN(C)c1ncncc1N1CCC(C(=O)NCCN2CCCC2)CC1	108
77	O=S(=O)(c1ccc2c(c1)CCC2)N1CCOc2ccc(COCc3ccc(Cl)cc3)cc2C1	95
78	COc1ccc(NC(=O)c2ccc3c(=O)n(CCc4ccccc4)c(SCC#N)nc3c2)cc1OC	110
79	CC1CCc2[nH]nc(C(=O)N3CCN(C(C)C)CC3)c2C1 (stereo not given)	99
80	Nc1c(C(=O)Nc2nccs2)sc2nc3c(cc12)CCC3	102
81	CC1CCC(NC(=O)C2CCCN(S(=O)(=O)c3cc(-c4noc(C5CCC5)n4)cs3)C2)CC1 (stereo not given)	102
82	O=C(NCc1c(-c2ccccc2)nc2n1CCS2)c1cccc(Cl)c1	97
83	COC(=O)C1=C(C(=O)OC)SC(=C2C(=S)C(C)(C)N(C(=O)c3ccc(C)cc3)c3cc(OC)ccc32)S1	105
84	COc1ccc(NS(=O)(=O)c2cc(-c3cc(C(F)(F)F)on3)sc2C)cc1	101
85	CN1CCN(C(=O)c2cc3nc(-c4ccc(Br)cc4)cc(C(F)(F)F)n3n2)CC1	109
86	Cc1ccc(N(CC(O)CN2CCCC2)S(=O)(=O)c2ccccc2)cc1 (stereo not given)	110
87	O=[N+]([O-])c1ccc(C2(O)CN(c3ccccc3)C3=[N+]2CCS3)cc1 (stereo not given)	106
88	O=C(Nc1cnc(N2CCCC2)nc1)C1CC1	104
89	CC(=O)Nc1nc(N2CCC(C(=O)NCc3ccc(F)cc3)CC2)sc1C(=O)N1CCCC1	100
90	Cc1cc(C)cc(NC(=O)N2CCN(Cc3cc(=O)n4nc(-c5ccc(F)cc5)sc4n3)CC2)c1	103
91	Cc1ccc(-c2noc(C3CC3)n2)cc1S(=O)(=O)N1CCC(C(=O)Nc2ncccc2C)CC1	99
92	Cc1ccc2c(=O)c(-c3nc(-c4cccc(F)c4)no3)cn(CC(=O)NCc3ccccc3)c2n1	114
93	Cc1ccc(NC(=O)C2Oc3ccccc3NC2=O)cc1 (stereo not given)	98
94	COc1ccccc1C1CC(=O)Nc2c1cnn2-c1nc2ccccc2s1 (stereo not given)	97
95	CCOC(=O)C1(C)/C(=N\Nc2cccc(Cl)c2)C(=O)C(=O)N1c1ccccc1 (stereo not given)	106
96	CCC(=O)Nc1cccc(-c2noc(C3CCCN(C(=O)c4cccc(C)c4)C3)n2)c1 (stereo not given)	106
97	CCc1ccc(NC(=O)CSC2=C(C#N)C(c3ccc(C(C)C)cc3)CC(=O)N2)cc1 (stereo not given)	106
98	COc1ccc(NC(=O)c2cc3cccc(OC)c3oc2=Nc2ccc(C(=O)O)cc2)cc1OC	111
99	CCc1ccc(N/C(SCc2cccc([N+](=O)[O-])c2)=C(/C#N)C(N)=O)cc1	108
100	CC1CCN(S(=O)(=O)c2ccc3[nH]cc(C(=O)O)c(=O)c3c2)CC1	108

More structures.
entry	compound	GIV Gai3 FP
101	C=CCOc1ccc(/C=C2/SC(N3CCN(C(C)=O)CC3)=NC2=O)cc1	104
102	O=C(NCc1ccc(F)cc1)c1cc(-c2ccc(F)cc2)nc2n[nH]c(-c3ccccc3)c12	99
103	O=C(NCc1ccccc1Cl)c1nnc(-c2ccc(S(=O)(=O)N3CCCC3)cc2)o1	99
104	COc1ccc(N2CCN(S(=O)(=O)c3ccc(F)c(C(=O)Nc4ccc(Cl)cc4Cl)c3)CC2)cc1	111
105	N#Cc1c2n(c3c(=O)n(Cc4ccccc4)cnc13)CCCC2	109
106	CC1CCC(NC(=O)c2cccn3c(=O)c4cc(Cl)ccc4nc23)CC1 (stereo not given)	97
107	COc1nc(-c2cccs2)cc(-c2ccc(C)cc2)c1C#N	109
108	CCOC(=O)c1ccc(NC(=O)CSc2nc3ccccc3c(=O)n2CCC(=O)N2CCN(c3ccccc3)CC2)cc1	113

Screens: PubChem, ICCB-Longwood Screening Facility, Harvard Medical School
